RE007 growth inh = less growth of the S. pombe RE007 Vpr strain | Potency, µM (top dose mostly 92.2 µM), without a hit: at the highest dose activity change, negative = less growth | hit rate 0.21% among 360,000 | S. pombe RE007 Vpr strain, BacTiter-Glo ATP luminescence, 24 h; control for the full effect not named in the record | AID 651644; active = well fitted falling curve with a large enough effect; inconclusive = small, poorly fitted or top-dose-only effect; inactive = no such curve, though single readings can be large or run the other way;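 also: % is scaled to controls: 0 for no effect and ±100 for the full control effect; nearly all actives have a fitted effect of over 50% in size; the assay follows cell death caused by Vpr and the record does not say whether a fall means rescue or toxicity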
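Fission yeast RE007 carrying one integrated HIV-1 vpr copy, seeded at OD 0.01 in PMG+AL medium with 23 nL pinned compound. Grown 24 h at 30 degrees; viability read by BacTiter-Glo luminescence after 5 min.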
Cruzain Triton = cruzain (T. cruzi) inhibition with detergent; hit rate 0.43% among 200,000; purified cruzain, Z-FR-AMC fluorescence, 0.01% Triton; Potency, µM, inactives show max response, negative = inhibition, hits mostly inhibitors;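 also: plate controls were neutral wells for no effect and buffer without enzyme for full effect; nearly all actives have a fitted effect of over 40% in size; top concentration of the series not given in the record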
Target sequence (P25779 123-467 limits assumed): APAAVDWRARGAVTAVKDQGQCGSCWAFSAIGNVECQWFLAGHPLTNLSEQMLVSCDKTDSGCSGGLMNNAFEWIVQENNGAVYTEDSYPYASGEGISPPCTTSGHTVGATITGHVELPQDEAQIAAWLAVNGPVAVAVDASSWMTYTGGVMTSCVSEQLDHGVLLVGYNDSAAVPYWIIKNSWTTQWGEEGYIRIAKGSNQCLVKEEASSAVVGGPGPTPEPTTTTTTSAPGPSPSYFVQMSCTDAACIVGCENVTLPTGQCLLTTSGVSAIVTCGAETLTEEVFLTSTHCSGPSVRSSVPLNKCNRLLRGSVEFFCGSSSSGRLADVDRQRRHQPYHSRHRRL
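Cruzain (1.5 nM) preincubated 15 min at RT with compound in 100 mM sodium acetate pH 5.5, 5 mM DTT, 0.01% Triton X-100. Reaction started with 2 uM Z-FR-AMC; AMC fluorescence (ex 360/em 450 nm) change over 60 s gave rate.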
Lassa entry inh = Lassa virus entry inhibition | Potency, µM (top dose mostly 37.9 µM), for the others: at the highest dose activity change, negative = inhibition, actives largely listed as inhibitors | hit rate 1.2% among 300,000 | Lassa virus pseudotype entry inhibition, cell reporter; control for the full effect not named in the record; active means well fitted inhibition curve with a large enough effect; inconclusive means small, poorly fitted or top-dose-only effect, or effect the other way; inactive means flat fitted curve, though single readings scatter; tested in HEK293 cells; also: % is scaled to controls: 0 for no effect and ±100 for the full control effect; nearly all actives have a fitted effect of over 50% in size; luciferase read-out
MARV entry inh = Marburg virus entry inhibition; Marburg virus pseudotyped entry inhibition, cell reporter; control for the full effect not named in the record; about a third of the inactives were read at about 46 µM; Potency, µM (highest dose often 37.8 µM), for inactives: top-dose activity change, negative = inhibition, usual class: inhibitors; hit rate 1.8% among 300,000; active = well fitted inhibition curve with a large enough effect; inconclusive = small, poorly fitted or top-dose-only effect, or effect the other way; inactive = flat fitted curve, though single readings scatter; tested in HEK293 cells; about a fifth of its hits are not listed in these tables; also: % is scaled to controls: 0 for no effect and ±100 for the full control effect; luciferase read-out
SARS PLP yeast = inhibitors of SARS-CoV papain-like protease in yeast | AID 485353 | S. cerevisiae expressing SARS-CoV PLpro, growth rescue; control for the full effect not named in the record | hit rate 0.19% among 330,000 | Potency, µM (top dose mostly 32.9 µM), without a hit: at the highest dose activity, positive = growth rescue; active means well fitted rising curve with a large enough effect; inconclusive means small, poorly fitted or top-dose-only effect; inactive means no such curve, though single readings can be large or run the other way; also: 0% is about no effect; nearly all actives have a fitted effect of over 55% in size; growth read by luminescence after 48 h
NS1 function inh = inhibitors of influenza NS1 protein function; hit rate 0.4% among 270,000; S. cerevisiae slowed by influenza A NS1, growth recovery by OD600; Potency, µM (series often up to 46.1 µM), without a hit: at the highest dose activity, positive = more growth; AID 2326; active means well fitted rising curve with a large enough effect; inconclusive means small, poorly fitted or top-dose-only effect; inactive means no such curve, though single readings can be large or run the other way; also: nearly all actives have a fitted effect of over 50% in size
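S. cerevisiae expressing influenza A NS1, grown in glucose, washed, then diluted 1:100 into pH 6.0 -URA galactose medium with 23 nl compound. Growth recovery read as OD600; NS1-free strain serves as control.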
Cruzain inh noDet = cruzain (T. cruzi) inhibition without detergent; purified cruzain, Z-FR-AMC fluorescence, no detergent; P25779; Potency, µM, without a hit: max response, negative = inhibition, most hits filed as inhibitors; AID 1476; hit rate 2.3% among 200,000;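 also: plate controls were enzyme without inhibitor for no effect and buffer without enzyme for full effect; nearly all actives have a fitted effect of over 40% in size; top concentration of the series not given in the record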
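Detergent-free condition (0.00005% Triton X-100) in acetate buffer pH 5.5 with DTT. 1.5 nM enzyme and compound were pre-mixed 15 min, then 2 uM Z-FR-AMC substrate added; reaction progress from fluorescence change between first and third reads (60 s).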
StopGo reporter = lowers the luciferase signal of an FMDV 2A StopGo reporter. human cells with a luciferase reporter of 2A StopGo recoding; control for the full effect not named in the record. Potency, µM (series often up to 57.9 µM), without a hit: at the highest dose signal change, negative = less light. hit rate 1.2% among 410,000. AID 1159524; active = well fitted falling curve with a large enough effect; inconclusive = small, poorly fitted or top-dose-only effect; inactive = no such curve, though single readings can be large or run the other way; tested in HEK293T cells; also: % is scaled to controls: 0 for no effect and ±100 for the full control effect; nearly all actives have a fitted effect of over 45% in size; luciferase light after 4 h
* marks the source's active call; other numbers are inactive results; ? = inconclusive; . = no result given; [ ] = dose if it differs, or a comment. Unless noted, calls follow the shape of the dose curve; as a rule, active = well fitted curve in the direction sought with a large enough effect; inconclusive = small, poorly fitted or top-dose-only effect, or another doubt; inactive = no such curve, though single readings can be large; an effect the other way counts as inactive or inconclusive. Potency is read from the fitted curve at half-maximal effect.

SMILES	RE007 growth inh	Cruzain Triton	Lassa entry inh	MARV entry inh	SARS PLP yeast	NS1 function inh	Cruzain inh noDet	StopGo reporter
CC1CC/C(=N/Nc2ccccc2)C(=O)N1 (configuration not stated)	13.2%	-5.9%	15.9%	?	-1.9%	2.9%	-5.8%	22.3%
CCOC(=O)C1(Cc2cccc(OC)c2)CCCN(S(=O)(=O)c2cccnc2)C1 (configuration not stated)	7.2%	.	.	.	0.2%	-6.1%	.	-11.2%
CN1C(=O)N(C)C(=O)C(NS(=O)(=O)c2ccc(N)cc2)(c2ccccc2)C1=O	15.8%	.	-1.1%	?	.	.	.	-12.2%
Cc1noc(C)c1COc1cccc(C(=O)OCC(=O)NCCN2C(=O)CSC2=O)c1	14.9%	.	3.5%	-11.1%[46.1 µM]	1.6%	.	.	-12.7%
Cc1ccc(C2=NN=C(NC(=O)CSc3nc(C)cc(C)n3)SC2)cc1	.	-8.1%	.	.	-46.4%	5.3%	18.1%	.
Cc1ccc2c(c1)N(CC(=O)NCCc1ccccc1)C(=O)c1cccnc1O2	-8.3%	.	.	.	3.2%	-3.2%	.	-6.7%
CC(C)C[C@H](NC(=O)c1nc[nH]c1C(=O)NCc1ccc(CNC(=O)OC(C)(C)C)cc1)C(=O)OCc1ccccc1	7.5%	.	.	.	1.6%	?	.	-28.4%
CCc1cccc(CC)c1N(COC)C(=O)Cn1c(CO)nc2ccccc21	0.8%	4.0%	-12.1%	-17.9%	8.9%	-10.1%	?	21.5%
CCc1ccc(OCC(=O)N(Cc2ccco2)Cc2ccco2)cc1	.	-6.0%	11.4%[46.1 µM]	-7.6%[46.1 µM]	.	.	-6.7%	-12.3%
CCOC(=O)c1c(NC(=O)c2ccc(C)cc2)sc2c1CC(C)(C)OC2	11.3%	-22.4%	2.9%	-12.8%[46.1 µM]	-5.7%[6.58 µM]	1.4%	-5.7%	-3.0%
CCOC(=O)C1(CCOC)CCN(Cc2cnc(-c3cccc(C)c3)nc2)CC1	-5.9%	.	-0.5%	?	-1.2%	0.6%	.	-15.3%
C=CCN(CC=C)C(=S)NC(=O)Cc1cccc2ccccc12	-14.1%	.	27.1%	-18.3%[46.1 µM]	-2.5%	-6.3%	.	23.5%

Single records, as listed above.
CCOC(=O)C1(CCOC)CCN(Cc2cnc(-c3cccc(C)c3)nc2)CC1 in the list: RE007 growth inh = -5.9%; Cruzain Triton = .; Lassa entry inh = -0.5%; MARV entry inh = ?; SARS PLP yeast = -1.2%; NS1 function inh = 0.6%; Cruzain inh noDet = .; StopGo reporter = -15.3%
CCc1ccc(OCC(=O)N(Cc2ccco2)Cc2ccco2)cc1 in the list: RE007 growth inh = .; Cruzain Triton = -6.0%; Lassa entry inh = 11.4%[46.1 µM]; MARV entry inh = -7.6%[46.1 µM]; SARS PLP yeast = .; NS1 function inh = .; Cruzain inh noDet = -6.7%; StopGo reporter = -12.3%

Next part.
SMILES	RE007 growth inh	Cruzain Triton	Lassa entry inh	MARV entry inh	SARS PLP yeast	NS1 function inh	Cruzain inh noDet	StopGo reporter
CCN(CC)C(=O)N1CCN(S(=O)(=O)c2ccc(C)c(C)c2)CC1	-10.0%	0.2%	?	0.0%	0.1%	6.5%	5.7%	?
COc1ccc(/C=N/NC(=O)c2nn(-c3ccc(Cl)cc3)c(=O)c3c(N)scc23)cc1	16.6%	-6.0%	10.7%	?	10.8%	26.4%	12.6µM*	8.5%
CC(=O)c1c(C)[nH]c(C(=O)N2CCN(C(=O)c3ccco3)CC2)c1C	-2.0%	1.1%	0.3%	?	-2.6%	2.4%	-10.1%	3.7%
COc1ccc(NC(=O)c2ccc(Cl)c(S(=O)(=O)NCC3CCCO3)c2)c(OC)c1 (configuration not stated)	2.7%	.	.	.	6.4%	16.0%	.	0.0%
COc1c(S(=O)(=O)n2nc(C)cc2C)ccc(Cl)c1Cl	-1.8%	-4.2%	-17.7%	?	.	7.0%	-1.1%	13.0%
CCOC(=O)C1=C(COC(=O)/C=C/c2ccc(OC)cc2OC)NC(=O)NC1C (configuration not stated)	0.4%	.	?	13.7%	-3.8%	.	.	-11.3%
O=C1CCN(Cc2nnnn2CC2CCCO2)c2ccccc2N1 (configuration not stated)	1.3%	3.4%	19.3%	5.0%	0.9%	6.6%	9.7%	.
COc1ccc(NC(=O)/C(=C\c2cccnc2)NC(=O)c2cccs2)cc1	0.2%	-6.5%	-5.0%	12.7%	8.3%	-3.3%	15.3%	-2.8%
CCOc1ccc(C2/C(=C(\O)c3ccc4c(c3)OCCO4)C(=O)C(=O)N2CCN2CCOCC2)cc1OC (configuration not stated)	-10.8%	.	?	1.4%[46.1 µM]	6.9%	27.3%	.	-4.7%
O=C(O)c1ccc(CNC(=O)c2ccccc2NC(=O)c2ccc([N+](=O)[O-])cc2)cc1	12.6%	.	9.4%	27.5%[46.1 µM]	13.5%	.	.	9.7%
Cc1cccc(NC(=O)C2CCCN(S(=O)(=O)c3cccc4cccnc34)C2)c1 (configuration not stated)	-3.5%	-3.0%	.	3.9%	6.0%	-8.1%	-7.4%	?
FC(F)(F)c1cc(-c2ccco2)nc(N2CCOCC2)n1	-9.8%	-3.6%	-2.0%	8.2%[46.1 µM]	.	-17.1%	-7.3%	-15.4%
O=C(NNC(=O)c1cc(-c2ccc(Cl)cc2Cl)nc2ccccc12)Nc1ccccc1	-10.8%	3.9%	?	?	4.0%	18.8%	?	0.0%
O=C(NC(=S)Nc1nc(-c2ccccc2)cs1)c1cccs1	-3.7%	-4.0%	1.0%	0.2%	-21.5%	-14.9%	?	4.6%
COCCNC(=S)N1C2CCC1CC(NC(=O)NC13CC4CC(CC(C4)C1)C3)C2 (configuration not stated)	0.4%	11.8%	-21.1%	4.0%	3.4%	10.6%	?	-7.8%
CC(O)CCC(=O)NCCNC(=O)CCC(C)O (configuration not stated)	1.7%	2.2%	19.8%	-2.0%	-1.3%	1.7%	1.2%	0.0%
O=C1OC(N2C(=O)CC[C@H]2C(=O)Nc2ccc(F)c(F)c2)c2ccccc21 (some centres not stated)	2.6%	.	.	.	7.9%	19.5%	.	-26.0%
COc1ccc(C(=O)C2CCCN(C(=O)Cn3cncn3)C2)cc1OC (configuration not stated)	1.1%	.	.	.	3.6%	-12.7%	.	2.8%
Nn1c(-c2ccco2)n[nH]c1=S	-3.1%	0.6%	6.6%	1.8%	-0.6%	1.3%	1.9%	-15.5%
Cc1c(Br)c([N+](=O)[O-])nn1CC(=O)Nc1ccc2nc3n(c(=O)c2c1)CCCC3	13.3%	.	.	.	-2.3%	7.9%	.	-11.4%
c1cc2c3c(cccc3c1)-c1cnccc1-2	?	.	19.2%[46.1 µM]	0.0%[46.1 µM]	.	.	.	1.6%
c1ccc2sc(N3CCOCC3)nc2c1	-0.8%	-0.3%	-0.1%	17.0%	-10.2%	0.2%	2.1%	61.5%[activator]
COC(=O)c1ccc(C2c3[nH]c4ccccc4c3C[C@H]3C(=O)N(C)CC(=O)N23)cc1 (some centres not stated)	10.0%	.	-3.8%[46.1 µM]	?	3.2%	-3.0%	.	-16.4%
CCOc1ccc(S(=O)(=O)NCCC(=O)NCC2CCCO2)cc1 (configuration not stated)	20.9%	.	-5.3%	?	2.4%	.	.	-12.6%
Cc1ccc(C)c(N(C(=O)Cc2cccs2)C(C(=O)NC2CCCC2)c2ccc(C)o2)c1 (configuration not stated)	-3.9%	-7.7%	1.3%	-19.5%	1.8%	6.0%	3.8%	33.5%
CNC(=O)Cc1csc2ccc(C)cc12	11.3%	.	22.3%	-0.3%	0.1%	-4.2%	.	-9.6%
CCCN(CCC)S(=O)(=O)c1ccc(Cl)c(OC)c1	-7.7%	.	-14.8%	?	1.1%	.	.	9.9%
CCCCn1c(CN2C(=O)c3ccccc3C2=O)nc2ccccc2c1=O	-1.4%	-2.2%	0.6%	?	-0.4%	0.4%	-17.7%	-12.0%
Cc1ccnn1CC(=O)N/N=C/c1c[nH]c2ccccc12	-4.7%	.	-16.0%	3.1%	0.7%	0.2%	.	-5.5%
CC(=O)N1CC23C=CC(CC2CC12CCCCCC2)O3 (configuration not stated)	-10.5%	.	-0.9%	13.8%[46.1 µM]	2.8%	-3.9%	.	?
CCOC(=O)c1c(C)[nH]c(=S)c(C#N)c1-c1ccc(OC)cc1	3.6%	-2.8%	-15.9%	15.6%	6.5%	-0.4%	-3.1%	-9.9%
Cc1ccc(OCc2nc(-c3ccc(C(=O)NCCc4ccc(Cl)cc4)cc3)oc2C)cc1	.	-0.8%	-4.5%[46.1 µM]	.	.	.	5.3%	-20.8%
NNC(=O)CN1C(c2ccccc2)=Nc2ccc(Br)cc2C1c1ccccc1 (configuration not stated)	?	.	?	-30.0%[46.1 µM]	2.4%	.	.	-7.2%
CNC(=O)CC1C(=O)N(c2ccc(Cl)cc2)C(=S)N1CCc1ccc(OC)c(OC)c1 (configuration not stated)	-3.4%	.	?	?	-0.4%	2.1%	.	-12.6%
CCN1CCN(CCCNC(=O)c2cc3sccc3n2CC)CC1	1.5%	-1.6%	.	3.8%	-1.0%	0.9%	-5.0%	-22.9%
COC(=O)c1c(NC(=O)Cc2cccs2)sc2c1CCCC2	-18.4%	-12.1%	?	?	-18.2%	-45.9%	4.3%	5.3%
CCOC(=O)Cc1nc(-c2ccccc2)n[nH]1	11.7%	.	15.1%[46.1 µM]	20.5%[46.1 µM]	0.1%	.	.	12.2%
Cc1ccc(C2=NN(S(C)(=O)=O)C(c3ccc4nccnc4c3)C2)cc1 (configuration not stated)	6.3%	-3.5%	?	37.1%	5.5%	7.2%	7.4%	84.6%[activator]
O=C(NCC1CCCO1)C1C2C=CC3(CN(Cc4cccs4)C(=O)C13)O2 (configuration not stated)	2.4%	5.0%	-2.9%	-0.8%	0.6%	-0.9%	1.7%	-2.8%
Cc1cc(C)c(CSc2nnnn2-c2ccc(C(=O)O)cc2)c(C)c1	-1.8%	.	23.3%	-1.7%[46.1 µM]	-2.2%	-5.9%	.	-16.1%
